Bioassay records deposited in PubChem by ICCB-Longwood Screening Facility, Harvard Medical School.
HCMV NEC inh – cytomegalovirus nuclear egress complex inhibition; HTRF UL50-UL53 interaction, normalized percent inhibition; inhibition, % (concentration not given with the values); 190,000 compounds, 0.15% hits;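 active = both replicates at 50% or more, plus weaker picks with an unusually low signal ratio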;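 note: stock transfer was 100 nL into about 20 µL; 0% = negative control wells and 100% = wells with untagged competitor protein; inactives centre near -12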
GIV-Gai inh – blocks GIV peptide binding to rat Galpha-i3 | P08753 | percent of control (FP), % (test concentration not listed) | Galpha-i3/FITC-GIV peptide fluorescence polarization, 90 min; active compounds read low; scaled: aluminum fluoride 0%, vehicle 100% | 210,000 compounds, 0.42% hits;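 active = replicate mean at 85% of control or lower, very high polarization wells dropped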;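 note: lower values mean more displacement of the GIV peptide from Galpha-i3; wells of about 15 µL received 100 nL stock; the first replicate is given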
Target sequence (P08753 whole entry, looked up): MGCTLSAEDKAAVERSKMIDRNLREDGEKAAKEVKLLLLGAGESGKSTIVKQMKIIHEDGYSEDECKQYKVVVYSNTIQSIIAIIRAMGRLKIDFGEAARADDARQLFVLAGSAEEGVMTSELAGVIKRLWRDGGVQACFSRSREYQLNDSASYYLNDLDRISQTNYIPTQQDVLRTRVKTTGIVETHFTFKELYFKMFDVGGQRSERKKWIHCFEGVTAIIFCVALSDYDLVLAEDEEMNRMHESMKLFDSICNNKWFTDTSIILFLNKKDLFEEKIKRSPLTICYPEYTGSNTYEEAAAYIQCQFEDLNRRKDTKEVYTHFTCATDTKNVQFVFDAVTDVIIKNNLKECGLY
Sa growth 42C – inhibitors of Staphylococcus aureus growth at 42 °C; S. aureus RN4220 growth, OD600, 20 h; active compounds read low; relative growth, % (test concentration not listed); 170,000 compounds, 0.53% hits;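 active = growth at 42 °C up to 50% and 20 or more points under that at 30 °C, or under 10% at both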;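 note: 300 nL library stock went into each well; scaled to the means of positive and negative controls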
Sa growth 42C second temp – recorded beside Sa growth 42C, whose call it bears; relative growth, %; measured here: growth at 30 °C;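 optical density after 20 h as mean of two plates; 100% = untreated growth and lower means inhibition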
* hit, by the source's call; · = not tested or not shown; & = joins results of further samples. An unsorted share of the library (roughly 0.82% active in at least one column).

SMILES	HCMV NEC inh	GIV-Gai inh	Sa growth 42C	Sa growth 42C second temp
CC(=O)Nc1ccc(S(=O)(=O)NCC2CCC(C(=O)NCCCOC(C)C)CC2)cc1 (configuration not stated)	·	109	87	93
CC(=O)c1cccc(N2C(=O)CN(S(C)(=O)=O)CC2(C)C(=O)NC2CCCC2)c1 (configuration not stated)	·	104	114	94
COc1ccc(CSC(N)=Nc2ccccc2Cl)cc1	2	108	110	101
CCOC(=O)c1nnn(-c2nn3nnnc3c3ccccc23)c1C	3	102	66	82
CCOc1ccc(Nc2nc3c(C)cccc3cc2C#N)cc1	2	·	95	95
Cc1cccc(Nc2nc(-c3ccccc3)nc3ccccc23)c1	-34	104	90	55
CN(C)c1ccc(-c2nc3ccccn3c2Nc2ccc3c(c2)OCCO3)cc1	-9	104	97	91
COc1cccc2cc(S(=O)(=O)c3ccc(Cl)cc3)c(=O)oc12	·	103	111	88
CC12OC(=N)C(C#N)(C1c1ccccc1)C(C#N)(C#N)C(c1ccccc1)O2 (configuration not stated)	-56	·	91	81
O=C(CSc1nnc(Cc2csc(Nc3cccc(Cl)c3)n2)o1)c1ccc2c(c1)OCCO2	6	106	106	81
O=C(O)c1ccc(CN2C(=O)CSC2=S)cc1	0&-20	104	75	52
Cc1ccc(CCNC(=O)c2cc(-c3ccccc3)n[nH]2)cc1	·	107	111	90
COC(=O)c1ccc(O)c(Sc2cc(C(=O)OC)ccc2O)c1	-18	102	1.9*	2.0*
OCc1cc(Cl)c2c(c1)OCO2	-4	·	91	91
COc1ccc(Cl)cc1NC(=O)CSc1cn(CC(=O)N2CCCCC2)c2ccccc12	·	106	152	99
Cc1cccc(C(C)C)c1NC(=O)c1ccc2c(c1)CCN2S(C)(=O)=O	16	108	92	64
COc1ccc(CC(=O)Nc2c3c(nn2-c2ccc(C)cc2)CSC3)cc1	·	100	117	85
CCc1ccc(/C=c2\s/c(=C(/C#N)C(=O)C(C)(C)C)n(Cc3ccco3)c2=O)cc1	-2	·	109	96
CC(=O)c1cccc(NC(=O)c2cnn(-c3cccc(C)c3)c2-n2cccc2)c1	·	106	109	99
CCN(CC)S(=O)(=O)c1ccc(/C=C/C(=O)N2CC(C)OC(C)C2)cc1 (configuration not stated)	-46	·	80	90
COC(=O)C1CCCN1S(=O)(=O)c1ccc2c(ccn2C)c1 (configuration not stated)	-21	101	·	·
CN(Cc1nc2cc(-c3ccc(Cl)cc3)sc2c(=O)[nH]1)Cc1ccco1	-1	·	103	88
CCn1c(=O)n(CC)c2cc(S(=O)(=O)Nc3ccccc3C)c(C)cc21	14	109	114	107
CC1CC(=O)Nc2ccccc2N1C(=O)CCC(=O)O (configuration not stated)	-11	98	94	95
Nc1c(C(=O)N2CCCC2)sc2nc(-c3ccccc3)ccc12	-8	130	106	101
CCOC(=O)c1c(C)[nH]c(C(=O)N2CCC(C(C)C(=O)NCc3ccc(C)cc3)CC2)c1C (configuration not stated)	-14	104	·	·
COc1cccc(C(=O)N(C)C2(c3ccccc3Cl)CCCCC2=O)c1OC (configuration not stated)	-20	·	72	90
CCc1ccc(C2=Nn3c(nnc3-c3cccc(S(=O)(=O)N(CC)CC)c3)SC2)cc1	-19	·	85	90
Cn1c(=O)c2cc(C(=O)N3CCN(c4ccccn4)CC3)sc2n(C)c1=O	-21	113	·	·
CC(C)(C)c1ccc(Cn2c(=N)n(CC(=O)c3ccco3)c3ccccc32)cc1	-22	108	-0.6*	-0.3*

Shown bar-delimited: 15 of the compounds above.
compound | HCMV NEC inh | GIV-Gai inh | Sa growth 42C | Sa growth 42C second temp
COC(=O)c1ccc(O)c(Sc2cc(C(=O)OC)ccc2O)c1 | -18 | 102 | 1.9* | 2.0*
OCc1cc(Cl)c2c(c1)OCO2 | -4 | · | 91 | 91
COc1ccc(Cl)cc1NC(=O)CSc1cn(CC(=O)N2CCCCC2)c2ccccc12 | · | 106 | 152 | 99
Cc1cccc(C(C)C)c1NC(=O)c1ccc2c(c1)CCN2S(C)(=O)=O | 16 | 108 | 92 | 64
COc1ccc(CC(=O)Nc2c3c(nn2-c2ccc(C)cc2)CSC3)cc1 | · | 100 | 117 | 85
CCc1ccc(/C=c2\s/c(=C(/C#N)C(=O)C(C)(C)C)n(Cc3ccco3)c2=O)cc1 | -2 | · | 109 | 96
CC(=O)c1cccc(NC(=O)c2cnn(-c3cccc(C)c3)c2-n2cccc2)c1 | · | 106 | 109 | 99
CCN(CC)S(=O)(=O)c1ccc(/C=C/C(=O)N2CC(C)OC(C)C2)cc1 (configuration not stated) | -46 | · | 80 | 90
COC(=O)C1CCCN1S(=O)(=O)c1ccc2c(ccn2C)c1 (configuration not stated) | -21 | 101 | · | ·
CN(Cc1nc2cc(-c3ccc(Cl)cc3)sc2c(=O)[nH]1)Cc1ccco1 | -1 | · | 103 | 88
CCn1c(=O)n(CC)c2cc(S(=O)(=O)Nc3ccccc3C)c(C)cc21 | 14 | 109 | 114 | 107
CC1CC(=O)Nc2ccccc2N1C(=O)CCC(=O)O (configuration not stated) | -11 | 98 | 94 | 95
Nc1c(C(=O)N2CCCC2)sc2nc(-c3ccccc3)ccc12 | -8 | 130 | 106 | 101
CCOC(=O)c1c(C)[nH]c(C(=O)N2CCC(C(C)C(=O)NCc3ccc(C)cc3)CC2)c1C (configuration not stated) | -14 | 104 | · | ·
COc1cccc(C(=O)N(C)C2(c3ccccc3Cl)CCCCC2=O)c1OC (configuration not stated) | -20 | · | 72 | 90

Next records follow:
SMILES	HCMV NEC inh	GIV-Gai inh	Sa growth 42C	Sa growth 42C second temp
Cc1ccc(CCC(=O)Nc2ccccc2C(=O)O)o1	·	102	116	79
CCN(CCCNC(=O)c1nn(-c2ccc(OC)c(Cl)c2)c(=O)c2c1c1ccccc1n2C)c1cccc(C)c1	3	102	109	89
C=CCNCc1ccc2c(c1)c1ccccc1n2CC	·	104	120	63
CCOC(=O)N1CCC(NC(=O)c2cnn(-c3ccc(OC)cc3)c2C2CCN(C(=O)OC(C)(C)C)CC2)CC1	·	109	93	90
Cc1ccc(-n2nnc3c(SCC(=O)NCc4ccccc4Cl)ncnc32)cc1	·	99	110	93
NC1=NC(c2ccc(Cl)cc2)C(C(=O)c2ccccc2)N1 (configuration not stated)	-28	104	88	84
O=C1CCC(=O)N1c1ccccc1-c1ccccc1	-4	·	91	99
O=C(c1ccc2c(c1)N(Cc1ccccc1)C(=O)c1ccccc1S2(=O)=O)N1CCCC1	-27	104	111	88
CC1Cc2cc(S(=O)(=O)CCC(=O)Nc3cccnc3)ccc2N1C(=O)C1CC1 (configuration not stated)	-25	99	99	84
CN1c2ccccc2N(C)C1c1ccc(O)cc1	68*	16*	-1.2*	-0.9*
CCOc1ccc(CC(=O)NCC(c2ccc3c(c2)CCCN3C)N2CCCC2)cc1 (configuration not stated)	-13	105	·	·
CN(C(=O)c1ccco1)C1CC(C)(C)N(O)C(C)(C)C1	12	·	84	95
Cc1cccc(C(=O)OCC(=O)Nc2ccc3c(c2)OCCO3)c1C	-26	·	83	90
c1ccc(COn2c3c(c4c5nonc5ccc42)CCCC3)cc1	-34	52*	72	68
CCC1CCCCN1C(=O)c1cc2c(C)nn(-c3ccccc3)c2s1 (configuration not stated)	-21	98	46	41
COC(=O)c1cc(-c2ccc(OCc3ccccc3)c(OC)c2)no1	-9	·	106	95
Cc1ccc(S(=O)(=O)CCc2nnc(NC(=O)C3CCCN3C(=O)NC3CCCCC3)s2)cc1 (configuration not stated)	-12	104	88	69
COc1ccc(NC(=O)Cn2cc(S(=O)(=O)c3ccccc3)c(=O)c3cc4c(cc32)OCO4)cc1	-21	101	109	82
COc1ccc(/C=C/C(=O)N(C)C2CCS(=O)(=O)C2)cc1 (configuration not stated)	-60	·	86	84
O=c1c2c(-c3ccc(Cl)cc3)csc2ncn1CC1CCCO1 (configuration not stated)	-9	102	·	·
CC1=NN(c2ccccc2)C(=O)/C1=C\c1cn(C)c2ccccc12	-18	·	90	95
CC(=O)Nc1c2c(nn1-c1ccc(F)cc1)CSC2	-24	99	106	70
O=S(=O)(NCc1ccncc1)c1ccc(Br)cc1	-35	102	87	77
Cc1ccc(SCCC(=O)N/N=C/c2c(CO)cnc(C)c2O)cc1	-8	·	124	89
O=C1C(c2ccccc2)=C(NC2CCN(Cc3ccccc3)CC2)c2ccccc21	-11	106	·	·
CC1CCCC(NCCNC(=O)c2ccco2)C1 (configuration not stated)	-9	·	87	89
CC1(C(=O)NC2CCCCC2)Cn2c(cc3occc32)C(=O)N1CCCN1CCOCC1 (configuration not stated)	-9	102	·	·
COc1ccc(NC(=O)c2csnn2)cc1	9	104	95	84
CCCN1C(=O)C2(c3ccccc31)c1c(oc3ccccc3c1=O)C(=O)N2CCO (configuration not stated)	-8	107	97	90
COCCNC(=O)c1ccc(S(=O)(=O)N2CCCc3ccccc32)cc1	6	·	104	94
Cc1ccc(-n2ncc3c(N4CCN(C)CC4)ncnc32)cc1C	·	103	98	89
CCOC(=O)CCc1nc2sc3c(c2c(=O)[nH]1)CCCC3	6	·	122	104
CCOC(=O)N1CCN(C(=O)CCN2C(=O)/C(=C\C(C)=C\c3ccccc3)SC2=S)CC1	1	101	·	·
OCC(CO)(CO)c1ccccn1	-7	115	78	78
O=C(c1cc2c(=O)[nH]c3ccccc3c2s1)N1CCN(c2ccc(F)cc2)CC1	-23	100	104	73
CCOc1ccc(CCNC(=O)c2cc3c(=O)oc4ccc(C)cc4c3s2)cc1	·	109	99	98
CC1(C)CCc2cc(CN3CCN(Cc4ccccc4)CC3)ccc2O1	0	105	95	95
O=[N+]([O-])c1cc(-c2nc(-c3ccccc3)no2)ccc1NC1CCCC1	-5	109	97	95
CCOc1ccc(Nc2oc(/C=C/c3ccc(F)cc3)nc2C#N)cc1	-1	106	93	94
Cc1ccc(-n2nc3c(=O)n(CC(=O)NC(C)C)nc(C)c3c2C)cc1	·	105	98	88
COc1ccc(-c2[nH]nc3c2C(c2ccc([N+](=O)[O-])cc2)C(C#N)=C(N)O3)cc1OC (configuration not stated)	-30	100	·	·
CCOc1nc(SCCOc2ccccc2)nc(N(C)C)n1	-6	94	·	·
COc1cccc(C(=O)Nc2ccccc2-c2nc3ccccc3s2)c1	-28	110	117	89
CC(C)CSc1nn(C)c2nc3c(c(=O)n12)C(C)(C)Cc1ccccc1-3	-6	113	·	·
CC1=C(C(=O)NCc2cccc(Br)c2)C2(CCCCC2)OC1=O	·	98	114	81
CCn1c(SCC(=O)Nc2ccc3c(c2)OCCCO3)nc2cc(S(N)(=O)=O)ccc21	12	·	90	91
Cc1nnc(SCc2cc(=O)[nH]c(N3CCN(c4ccccc4)CC3)n2)s1	-16	105	93	104
COc1cccc(N=c2scc(-c3cccs3)n2CCCN2CCCC2=O)c1	-39	·	90	72
Cc1ccc(NC(=O)CSc2ccc(-c3sc(-c4ccccc4)nc3C)nn2)cc1F	·	106	98	82
CC1CCN(C(=O)CSc2nnc(NC(=O)Nc3ccccc3)s2)CC1	·	98	79	88
The listing continues.
SMILES	HCMV NEC inh	GIV-Gai inh	Sa growth 42C	Sa growth 42C second temp
O=C(CNC(=O)c1ccccc1)NCc1ccc(F)cc1	-16	·	94	88
COc1ccc(C2=NN(C(=O)c3ccc(Br)o3)C(c3ccc(N(C)C)cc3)C2)cc1OC (configuration not stated)	-17	108	·	·
Cc1ccc(CCNC(=O)C2CCN(C(=O)c3sccc3-n3cccc3)CC2)cc1	-16	110	·	·
CN(C)c1ncnc2c1ncn2C1OC(CO)C(O)C1O (configuration not stated)	-31	106	121	101
CCc1c(C)nc2nc(-c3ccccc3)nn2c1NCc1ccc(C)cc1	-7&-27	105&105	93	85
Cc1ccc(S(=O)(=O)N2CCOCC2)cc1C(=O)NC(=S)Nn1cnnc1	-19	·	97	88
CCOC(=O)c1c(NC(=O)c2ccc3c(c2)CC(c2ccccc2)OC3=O)sc2c1CCC(C)C2 (configuration not stated)	-6	104	·	·
CCN(CC)S(=O)(=O)c1ccc2c(c1)c(=O)c(C(=O)O)cn2C	·	99&99	98	94
COc1ccc(Nc2nc(Cl)nc(NCCN3CCOCC3)n2)c(OC)c1	-22	98	·	·
COc1ccc(Cc2nn3c(C(C)(C)C)nnc3s2)cc1OC	-25	101	85	77
Brc1ccc(-c2nnc3sc(CN4CCCCC4)cn23)cc1	7&-29	100&102	89&85	87&80
CC1CC(=O)c2cnc(NCC3CCCO3)nc2C1 (configuration not stated)	-15	97	·	·
O=C(Nc1nnc(-c2ccccc2)o1)NC1CCCCC1	-10	·	98	87
COc1ccccc1NC(=O)C1=C(C)Nc2c(C(=O)Nc3ccc(F)cc3)cnn2C1c1cccc([N+](=O)[O-])c1 (configuration not stated)	·	97	105	90
CC(C)Cc1ccc(C(C)C(=O)NC(C)Cc2c[nH]c3ccccc23)cc1 (configuration not stated)	·	102	94	72
Cc1[nH]c(C(=O)Nc2cccc(Cl)c2)c(C)c1S(=O)(=O)N1CCCC1	-14	108	·	·
CCOc1ccc(N2C(=O)c3cc(C(C)(C)C)nn3CC2(C)C(=O)NC2CCCCC2)cc1 (configuration not stated)	-8	102	·	·
CCOC(=O)c1sc(N)c(C#N)c1CSc1ccc2c(c1)OCCO2	-24	·	84	98
Cc1ccc(NC(=O)c2cnc(SCC(=O)N3CCOCC3)n(C)c2=O)cc1	·	99	116	85
Cc1ccccc1OCC(=O)Nc1ccc(S(=O)(=O)N(Cc2ccccc2)c2ccccc2)cc1	-13	100	112	84
Cn1c(=O)c2c(-c3ccc(Br)cc3)c(NCc3ccccc3)oc2n(C)c1=O	4	101	·	·
Cc1cc(NS(=O)(=O)c2c(C)nc3sc4ccccc4n3c2=O)ccc1Br	-28	99	·	·
